Screening data from PubChem BioAssay.
HSV augment – increases HSV replication in cells. maximum fold increase. 0.005% of 220,000 active. HSV replication augmentation in cells, fold increase. AID 1956;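 active = peak rise of 1.5-fold or more in the series; tested in PC3 cells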;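 note: first round at 10 µM; read as green reporter fluorescence; hits show the peak of a series up to 25 µM; 1 = signal of infected wells without compound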
RGS16-Gao HTS – RGS16-Galphao interaction regulator (human) | binding response (% of control), % at 10 µM | bead-based flow cytometry RGS16-Galphao binding, fluorescence; actives lie on both sides | 0.38% of 220,000 active | O15492+P09471 | AID 1441;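 active = below 25% or above 175%, edge rows of some plates excepted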;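 note: Galphao activated by GDP with aluminum fluoride before binding; 100% = wells without compound and 0% = beads without RGS; some results beyond the cut were filed as inactive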
GALR2 agonist – activates the human galanin receptor 2 | 0.48% of 140,000 active | O43603 | GALR2-expressing cells, agonist activation read-out | activation, %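 (tested at 5 µM)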;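 active = above mean plus 3 SD of all compounds, about 5% in these data, not always enough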;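 note: 0% = vehicle buffer wells and 100% = reference agonist at full effect; tested in CHO reporter cells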
Insulin prom inh – TRM-6 insulin promoter activity inhibition | 0.9% of 130,000 active | TRM-6 cells (human fetal islet line), insulin promoter-eGFP reporter, imaging; reporter expression induced with tamoxifen | inhibition, % at 2 µM;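 active = inhibition above the mean plus 3 SD, with well images judged a real hit on visual review, cut at about 60% in these data, passing the limit was not always enough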
PKD1 kinase inh – inhibitors of human PKD1 kinase; PKD1 kinase fluorescence polarization assay; inhibition, %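 (about 10 µM by stock and volumes)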; 0.056% of 200,000 active; AID 797;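 active = inhibition of 50% or more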;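 note: controls were vehicle for no effect and a reference inhibitor for full effect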
Target sequence (Q15139 whole entry, looked up): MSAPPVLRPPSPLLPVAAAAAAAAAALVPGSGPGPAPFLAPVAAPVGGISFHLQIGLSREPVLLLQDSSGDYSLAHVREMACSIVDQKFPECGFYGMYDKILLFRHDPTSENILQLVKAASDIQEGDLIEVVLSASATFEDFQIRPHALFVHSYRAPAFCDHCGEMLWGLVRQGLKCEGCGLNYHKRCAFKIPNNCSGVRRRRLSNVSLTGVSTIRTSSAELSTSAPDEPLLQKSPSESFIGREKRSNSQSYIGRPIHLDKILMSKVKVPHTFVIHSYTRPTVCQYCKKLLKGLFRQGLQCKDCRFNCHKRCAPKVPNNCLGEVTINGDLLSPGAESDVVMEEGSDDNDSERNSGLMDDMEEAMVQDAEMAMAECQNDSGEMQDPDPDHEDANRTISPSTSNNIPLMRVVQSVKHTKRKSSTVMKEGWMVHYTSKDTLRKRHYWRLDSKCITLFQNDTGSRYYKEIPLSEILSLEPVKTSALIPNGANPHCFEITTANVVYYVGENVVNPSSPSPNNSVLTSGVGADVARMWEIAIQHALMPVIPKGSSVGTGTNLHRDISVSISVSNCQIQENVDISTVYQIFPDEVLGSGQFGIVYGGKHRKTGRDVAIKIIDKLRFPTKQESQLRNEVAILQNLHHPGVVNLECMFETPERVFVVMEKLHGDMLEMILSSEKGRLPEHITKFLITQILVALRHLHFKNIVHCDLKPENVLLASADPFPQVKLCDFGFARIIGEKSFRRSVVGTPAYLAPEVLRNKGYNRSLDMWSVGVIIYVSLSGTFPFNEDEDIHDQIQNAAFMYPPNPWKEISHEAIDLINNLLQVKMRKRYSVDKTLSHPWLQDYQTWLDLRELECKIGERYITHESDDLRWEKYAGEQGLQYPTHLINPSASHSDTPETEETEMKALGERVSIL
Insulin prom inh cell count – further read-out of Insulin prom inh, marked with its call; normalized cell count, %; measured here: cell count, toxicity; reference of the scale not given here;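 cells exposed to compound for 48 h; stained nuclei by imaging scaled within each plate; lower means fewer cells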
HSV augment primary fold – also measured in HSV augment; calls as there; fold increase; compound at 10 µM; measured here: primary screen fold increase 10 uM; tested in PC3 cells;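 GFP signal in the first replicate; 1 = infected wells without compound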
The depositor's hits bear a star; i = inactive; . = not tested or not shown.

SMILES	HSV augment	HSV augment primary fold	RGS16-Gao HTS	GALR2 agonist	Insulin prom inh	Insulin prom inh cell count	PKD1 kinase inh
Cc1ccc(NC(=O)COC(=O)c2cccnc2)cc1	.	.	103	.	-8	124	-1
CCOC(=O)c1cc(-c2ccc(C)o2)nn1CCC#N	i	0.89	100	-0.6	23	124	4
CCOc1ccc(Br)cc1-c1noc(-c2cccs2)n1	i	1	-9	-0.1	31	162	-3
O=C(CSc1ncnc2c1nnn2-c1ccc(F)cc1)NCc1ccco1	i	0.94	104	-1.4	-12	161	-11
CCC1(CC)C(=O)C(C)(C)C(=O)OC1c1ccccn1 (stereo not given)	i	1	101	-1.6	43	128	0
Cc1[nH]c2ccccc2c1CCN(Cc1cccnc1)C(=S)Nc1ccc(F)cc1	i	0.87	108	.	0	218	-3
O=C(Nc1cccc([N+](=O)[O-])c1)C1C2CC/C=C\CCC21 (stereo not given)	i	0.91	98	.	.	.	.
CN(C)CCCCCNCCCNC(=O)/C=N\O	i	0.75	101	-0.5	.	.	6
COc1ccc([N+](=O)[O-])cc1NC(=O)c1cn(-c2ccc(Cl)cc2)c(=O)c2ccccc12	i	0.9	112	-0.5	-56	91	-4
COCCNC(=O)/C(C#N)=C/c1nc(N(C)C)n(-c2ccc(F)cc2)c1Cl	i	0.92	102	.	.	.	-3
CC(C)/C(=N/Nc1ccccc1[N+](=O)[O-])c1ccccc1	i	1	110	.	.	.	-7
CC(=O)Nc1ccc(NC(=O)CSc2ccccn2)cc1	i	1.1	104	-0.9	-48	80	4
Cc1c(C(=S)Nc2ccccc2)cnn1-c1ccc([N+](=O)[O-])cc1	i	0.94	101	-1.7	.	.	-9
COc1ccc(NC(=O)CCSc2ccc3ccccc3n2)cc1	i	0.89	106	-0.8	15	112	-3
O=C(CN1CCN(c2ccccn2)CC1)N1c2ccccc2CCc2ccccc21	i	0.87	161	-0.9	-4	114	-7
Cc1cc2cc(CN(CC3CCCO3)C(=O)c3cnccn3)c(=O)[nH]c2cc1C (stereo not given)	i	0.91	98	-2.5	-11	57	-14
CCOc1cc2c(cc1OCC)C(C(=O)O)C(c1ccc(OC)c(O)c1)N(C)C2=O (stereo not given)	i	1	101	-2.8	.	.	3
CCOCCCNC(=O)/C(C#N)=C/c1ccc(-c2ccc(S(=O)(=O)N3CCOCC3)cc2)o1	i	0.84	19	1.0	34	39	6
CCC(C(=O)Nc1nc(C)cs1)c1ccccc1 (stereo not given)	i	0.87	102	-1.2	23	116	-6
O=C(N/N=C\c1cc(Br)c(Br)o1)C1COc2ccccc2O1 (stereo not given)	i	1.3	103	.	.	.	.
CCCCOc1ccccc1C1NC(=O)NC(C)=C1C(=O)OCCOCC (stereo not given)	i	0.66	103	-0.8	.	.	4
C[C@@H]1CCC[C@H](C)N1Cc1nc(Cc2ccccc2Cl)no1	i	1.2	103	.	.	.	-2
OC(COc1ccc2c(c1)CCC2)CN1CCN(c2ccccc2F)CC1 (stereo not given)	i	0.87	102	0.2	43	141	-7
COc1ccc2cc(-c3cc(C(=O)OCC(=O)Nc4c(C)n(C)n(-c5ccccc5)c4=O)c4ccccc4n3)ccc2c1	i	0.91	107	0.1	-325	94	-8
O=C(Nc1ccccc1)Nc1ccc2ccccc2c1	i	0.89	104	.	.	.	.
O=C(COC(=O)c1cc(-c2cccs2)nn1-c1ccccc1)Nc1cccc([N+](=O)[O-])c1	i	1	100	0.2	-3	97	-8
O=C(N[C@@H](Cc1ccccc1)C(=O)O)c1cccnc1	i	0.91	105	-1.4	.	.	-11
COc1ccc(Nc2nc(OC)nc(N3CCN(c4ccc(OC)cc4)CC3)n2)cc1	i	0.85	104	-0.1	5	115	-2
CC1(C)Oc2ccc3ccc(=O)oc3c2/C(=C/NCCO)C1=O	i	0.66	98	-0.1	0	82	-5
O=S(=O)(N[C@@H]1C[C@H]2CC[C@@H]1C2)c1cccs1	i	0.92	79	-2.5	.	.	-12
C/C(=N\N=c1/scc(C)n1Cc1ccco1)c1cccc([N+](=O)[O-])c1	i	0.94	95	-0.4	.	.	-3
O=c1c2ccccc2nc(/C=C/c2ccccc2)n1CCc1ccccc1	i	1	104	-1.0	.	.	-10
COc1c(C(=O)Nc2ccc(Cc3ccncc3)cc2)ccc2ccccc12	i	0.93	105	-0.2	.	.	-2
O=C(O)CC(NC(=O)C12CC3CC(CC(C3)C1)C2)c1cc([N+](=O)[O-])ccc1Cl (stereo not given)	i	0.95	100	.	.	.	3
COCc1c(C(=O)N/N=C/c2cccc3ccccc23)nnn1-c1nonc1N	i	0.94	98	.	.	.	2
CSc1ccc(NC(=O)N2CC=C(n3c(=O)[nH]c4ccccc43)CC2)cc1	i	0.66	104	-2.4	64*	83*	-18
Cc1cc([N+](=O)[O-])nn1CC(=O)N1c2ccccc2CC1C (stereo not given)	i	0.89	102	-0.9	31	117	-2
Cc1ccc(N2C(=O)/C(=C\c3ccc(C(C)C)cc3)N=C2SC2CCOC2=O)cc1 (stereo not given)	i	0.9	63	0.1	.	.	3
CN1CCN(C(=O)c2cc3nc(-c4ccco4)cc(C(F)(F)F)n3n2)CC1	i	0.93	103	.	-7	151	2
CN(C)S(=O)(=O)c1cccc(NC(=O)COC(=O)c2cc(=O)c3ccccc3o2)c1	i	0.93	100	.	.	.	.
O=C(N/N=C/c1ccc(OC(=O)c2cccs2)cc1)c1cccc(F)c1	i	0.95	97	-1.7	30	82	1
Cc1ccc(S(=O)(=O)Oc2cc(N)c3c(n2)CCC3)cc1	i	1.1	102	.	.	.	.
Cc1onc(-c2c(Cl)cccc2Cl)c1C(=O)Nc1ccc(N2CCOCC2)cc1	i	0.85	102	.	.	.	.
CCC/C(O)=C1\C(=O)CC(c2ccccc2)CC1=NCCc1c(C)[nH]c2ccc(C)cc12 (stereo not given)	i	1	14*	-0.8	-32	68	-4
Cc1ccc(C(=O)CCC(=O)Nc2cccnc2)cc1C	i	1	101	-3.8	-177	95	8
O=C(Nc1ccc2c(c1)ncn2C1CCCCC1)c1ccco1	i	0.78	99	-2.4	.	.	0
Cc1cc(C)c2nc(SCC(=O)NC(=O)c3cccn3C)cc(C)c2c1	i	0.94	98	.	.	.	-1
CCOc1ccc(C(C)=O)cc1Cc1c(O)nc(N)[nH]c1=O	i	0.93	98	-0.2	.	.	1
O=C(N=Nc1c(O)[nH]c2ccccc12)c1ccccc1NS(=O)(=O)c1cccs1	i	1.1	86	-0.9	3	119	-19
COc1cccc(/C(C)=N/Nc2ncc(Cl)cc2Cl)c1	i	0.82	99	-1.6	-13	109	-19

Twelve entries out of the list, ordered by molecular weight, ascending.
SMILES	HSV augment	HSV augment primary fold	RGS16-Gao HTS	GALR2 agonist	Insulin prom inh	Insulin prom inh cell count	PKD1 kinase inh
CCC(C(=O)Nc1nc(C)cs1)c1ccccc1 (stereo not given)	i	0.87	102	-1.2	23	116	-6
O=C(Nc1cccc([N+](=O)[O-])c1)C1C2CC/C=C\CCC21 (stereo not given)	i	0.91	98	.	.	.	.
COc1cccc(/C(C)=N/Nc2ncc(Cl)cc2Cl)c1	i	0.82	99	-1.6	-13	109	-19
COc1c(C(=O)Nc2ccc(Cc3ccncc3)cc2)ccc2ccccc12	i	0.93	105	-0.2	.	.	-2
OC(COc1ccc2c(c1)CCC2)CN1CCN(c2ccccc2F)CC1 (stereo not given)	i	0.87	102	0.2	43	141	-7
CN1CCN(C(=O)c2cc3nc(-c4ccco4)cc(C(F)(F)F)n3n2)CC1	i	0.93	103	.	-7	151	2
O=C(CN1CCN(c2ccccn2)CC1)N1c2ccccc2CCc2ccccc21	i	0.87	161	-0.9	-4	114	-7
CCOc1cc2c(cc1OCC)C(C(=O)O)C(c1ccc(OC)c(O)c1)N(C)C2=O (stereo not given)	i	1	101	-2.8	.	.	3
Cc1ccc(N2C(=O)/C(=C\c3ccc(C(C)C)cc3)N=C2SC2CCOC2=O)cc1 (stereo not given)	i	0.9	63	0.1	.	.	3
COc1ccc(Nc2nc(OC)nc(N3CCN(c4ccc(OC)cc4)CC3)n2)cc1	i	0.85	104	-0.1	5	115	-2
O=C(COC(=O)c1cc(-c2cccs2)nn1-c1ccccc1)Nc1cccc([N+](=O)[O-])c1	i	1	100	0.2	-3	97	-8
COc1ccc2cc(-c3cc(C(=O)OCC(=O)Nc4c(C)n(C)n(-c5ccccc5)c4=O)c4ccccc4n3)ccc2c1	i	0.91	107	0.1	-325	94	-8

More structures follow.
SMILES	HSV augment	HSV augment primary fold	RGS16-Gao HTS	GALR2 agonist	Insulin prom inh	Insulin prom inh cell count	PKD1 kinase inh
Cc1cc(N2CCCCC2)nc2c(C)cccc12	i	1.1	101	.	.	.	1
Cc1cccc(C(=O)Nc2ccc(N3CCN(S(C)(=O)=O)CC3)cc2)c1	i	0.78	95	.	.	.	0
O=C1CN(S(=O)(=O)c2ccccc2)CCN1S(=O)(=O)c1ccccc1	i	0.99	99	0.1	6	161	2
O=c1c2ccccc2n2c(-c3ccc(F)cc3)nnc2n1Cc1ccccc1	i	0.64	100	0.0	-29	123	-9
CN(C)c1ccc(-n2cccc2/C=C2/SC(=Nc3ccc(F)cc3)NC2=O)cc1	i	1	102	-2.2	.	.	-6
CC(C)(C)c1ccc(C(=O)NCc2ccccc2)cc1	i	1	107	.	.	.	-4
CC(=O)c1cc(-c2ccccc2)n(CC(=O)Nc2cccc(C)c2C)c1C	i	1	99	-1.9	17	90	-7
Cc1ccc(NC(=O)CN(c2cc(C)cc(C)c2)S(=O)(=O)c2c(C)noc2C)nc1	i	1.1	91	-1.3	.	.	-2
Cc1ccc(N2CC(C(=O)Nc3cccnc3)CC2=O)cc1 (stereo not given)	i	0.89	68	-1.2	37	50	1
O=C(O)c1cccc(S(=O)(=O)Nc2ccc(O)cc2Sc2nc3ccccc3s2)c1	i	1	98	-0.7	-14	101	-9
CCOc1ccc(N(C(=O)Nc2ccccc2)C2=NCCC2)cc1	i	1.1	99	-2.6	50	114	-8
CN1C(=O)CC(C(=O)O)SC1=Nc1cccc(C(F)(F)F)c1 (stereo not given)	i	0.83	80	-0.3	.	.	8
Cn1nc(C(C)(C)C)c([N+](=O)[O-])c1C(=O)NC(C)(C)C	i	0.93	36	-0.5	-57	117	-7
c1ccc(-c2nc3ccccc3nc2N2CCOCC2)cc1	i	0.95	94	-1.2	27	84	4
CN(C)S(=O)(=O)c1cccc(NC(=O)c2cc(-c3cccs3)nc3ccccc23)c1	i	0.88	53	-1.3	-37	49	-4
CCCCCn1c(CCNC(=O)CCC)nc2ccccc21	i	0.91	111	-0.9	.	.	-2
COc1ccc2c(c1)CCCC21NC(=O)N(CC(N)=O)C1=O (stereo not given)	i	1	103	-1.2	9	181	0
COc1ccccc1C(=O)Nc1cccc(Oc2c(F)c(F)c(F)c(F)c2F)c1	i	0.93	101	.	.	.	.
O=C(Nc1ccccn1)c1ccco1	i	0.92	107	0.4	31	129	-13
COc1ccc(-c2cc(C(=O)Nc3ccc(S(=O)(=O)Nc4ncccn4)cc3)c3ccccc3n2)cc1	i	0.97	106	.	.	.	.
Cc1cc(NC(=O)c2cc3n(n2)C(C(F)(F)F)CC(c2ccco2)N3)n(-c2ccccc2)n1 (stereo not given)	i	1	108	-2.3	-230	99	-12
CCOc1cc(/C=N/NC(=S)Nc2ccccc2C(F)(F)F)ccc1OCC(=O)N1CCOCC1	i	0.59	93	-0.4	7	89	-7
COc1ccccc1NC(=O)/C(C#N)=C/c1c(C)nn(-c2ccc(F)cc2)c1Cl	i	0.94	98	-0.9	.	.	-6
CCn1c(SCC(=O)N2CCCc3ccccc32)nnc1-c1cccs1	i	0.81	99	-2.0	43	168	-7
NNC(=O)[C@H]1C[C@@H]1c1ccccc1	i	0.94	108	-0.5	-7	91	-3
CC1=C(CO)C(=O)OC([C@@H](C)C2CC[C@H]3C4C[C@H]5O[C@]56[C@@H](O)C=CC(=O)[C@]6(C)C4CC[C@]23C)C1 (stereo not given in full)	i	0.45	67	.	.	.	.
CCOC(=O)N1CCN(C(=O)c2ccc3c(=O)n(CCc4ccccc4)c(=O)[nH]c3c2)CC1	i	0.86	100	-1.3	16	50	-3
CCOC(=O)c1cnc(-n2nc(C)cc2C)nc1N1CC(C)OC(C)C1 (stereo not given)	i	0.81	.	-0.8	-19	177	-4
CC(C)(C)NC(=O)C(c1ccc(F)cc1)N(CCc1ccccc1)C(=O)c1ccn[nH]1 (stereo not given)	i	0.98	109	.	.	.	-2
COc1ccc(/C(N)=N/OC(=O)Cc2cccs2)cc1	i	0.96	106	-1.2	23	164	-15
